Vaccinia inh: blocks a specific stage of Vaccinia orthopoxvirus infection, primary screen, cell-based, single point | Vaccinia-infected cells, mCherry/Venus stage reporter fluorescence; hits give low values; some inactives read as strong as hits | activity change (mCherry), % (no concentration beside the values) | 0.01% of 89,000 active | AID 1053133, 2014;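 active = mCherry past -33% and 40 or more points under the early reporter, replicates agreeing; inconclusive = past -33% without that gap or agreement; tested in A549 cells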;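 note: scaled between vehicle wells and reference inhibitor wells; 23 nL library stock went into each well; one replicate is shown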
Vaccinia inh Venus: second read-out of Vaccinia inh, no call of its own (marks repeat the call); activity change (Venus), %; measured here: Venus reporter, other viral stage;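 negative = less Venus signal; first of two replicates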
Active calls of the source: *; ? = inconclusive; . = no result given. This is a subset; count on the stated rates, not on these rows.

Start of the listing, in advance:
Results follow in this order: Vaccinia inh	Vaccinia inh Venus
O=C1O[C@H](c2ccccc2)[C@H](c2ccccc2)N2[C@H]1[C@@H](C(=O)Nc1nc3ccccc3s1)[C@]1(C(=O)Nc3ccc(C#CCCO)cc31)[C@H]2c1ccc(OCCO)cc1
→ 17	13
C[C@@H]1CCCCO[C@@H](CN(C)S(=O)(=O)c2ccccc2)[C@H](C)CN([C@H](C)CO)C(=O)c2cc(NC(=O)c3ccccc3)ccc2O1
→ ?	.
Cc1ccc(S(=O)(=O)N(C)C[C@@H]2Oc3ccc(N(C)C)cc3C(=O)N([C@@H](C)CO)C[C@@H]2C)cc1
→ 6	-3

The list itself, from the first entry:
Results follow in this order: Vaccinia inh	Vaccinia inh Venus
O=C1O[C@H](c2ccccc2)[C@H](c2ccccc2)N2[C@H]1[C@@H](C(=O)Nc1nc3ccccc3s1)[C@]1(C(=O)Nc3ccc(C#CCCO)cc31)[C@H]2c1ccc(OCCO)cc1
→ 17	13
C[C@@H]1CCCCO[C@@H](CN(C)S(=O)(=O)c2ccccc2)[C@H](C)CN([C@H](C)CO)C(=O)c2cc(NC(=O)c3ccccc3)ccc2O1
→ ?	.
Cc1ccc(S(=O)(=O)N(C)C[C@@H]2Oc3ccc(N(C)C)cc3C(=O)N([C@@H](C)CO)C[C@@H]2C)cc1
→ 6	-3
O=C(C[C@H]1C[C@H]2c3cc(NC(=O)NC4CCCCC4)ccc3O[C@H]2[C@H](CO)O1)NCC1CC1
→ 15	20
C[C@@H]1CCCCO[C@@H](CN(C)Cc2ccc(C(=O)O)cc2)[C@@H](C)CN([C@@H](C)CO)C(=O)c2cc(NC(=O)Nc3ccccc3)ccc2O1
→ 22	10
C[C@@H]1CN([C@H](C)CO)S(=O)(=O)c2ccc(-c3ccncc3)cc2O[C@@H]1CN(C)C(=O)CC1CC1
→ 3	4
C[C@@H]1CN([C@H](C)CO)C(=O)c2cc(NS(=O)(=O)c3cccs3)ccc2O[C@@H](C)CCCCO[C@@H]1CN(C)C
→ 4	-4
C[C@H]1CN([C@@H](C)CO)C(=O)c2cc(NC(=O)Cc3cn(C)c4ccccc34)ccc2O[C@H]1CN(C)Cc1ccc2c(c1)OCO2
→ -6	-7
CO[C@@H]1CN(C)C(=O)c2cc(NC(C)=O)ccc2OC[C@@H](C)N(Cc2nccs2)C[C@@H]1C
→ 6	4
CN(C)CCCNC(=O)[C@@H]1[C@@H](CO)[C@@H]2Cn3c(ccc(-c4ccncc4)c3=O)[C@H]1N2C(=O)C1CC1
→ 1	-5
CC(C)CC#Cc1ccc([C@@H]2[C@@H](CO)N3C(=O)CN(C(=O)Nc4cc(F)ccc4F)C[C@@H]23)cc1
→ ?	.
COCC#Cc1ccc2c(c1)O[C@@H](CN(C)Cc1ccccc1)[C@@H](C)CN([C@H](C)CO)S2(=O)=O
→ -10	-2
O=C(c1cnccn1)N1CC(=O)N2[C@H](CO)[C@H](c3ccc(C#CCC4CCCC4)cc3)[C@H]2C1
→ ?	.
CCCNC(=O)[C@@H]1[C@@H](CO)[C@@H]2Cn3c(cccc3=O)[C@H]1N2C(=O)C1CCC1
→ 5	2
Cn1cnc(CCNC(=O)C[C@H]2CC[C@@H]3[C@H](COC[C@H](O)CN3C(=O)Nc3ccc(Cl)cc3)O2)c1
→ 5	7
C[C@@H]1CN([C@H](C)CO)C(=O)c2cccc(NC(=O)NC3CCCCC3)c2O[C@H]1CN(C)C
→ -7	-10
COc1ccc2c3c(n(C)c2c1)[C@H](CO)N(C(=O)NC(C)C)CC31CCN(CC2CC2)CC1
→ -9	-11
C[C@H]1CN([C@@H](C)CO)C(=O)c2cc(NS(=O)(=O)c3ccc(F)cc3)ccc2O[C@H]1CN(C)Cc1ccc(C(=O)O)cc1
→ 7	0
COC(=O)[C@H]1[C@H](CO)[C@H]2Cn3c(ccc(C4=CCCC4)c3=O)[C@H]2N1C(=O)C1CCCC1
→ 14	7
C[C@H]1CN([C@@H](C)CO)C(=O)Cc2cc(NC(=O)C3CCCCC3)ccc2O[C@@H]1CN(C)C
→ 7	6
COc1ccc(NC(=O)Nc2ccc3c(c2)CC(=O)N([C@@H](C)CO)C[C@H](C)[C@@H](CN(C)C)O3)cc1
→ 11	8
CNC[C@@H]1Oc2ncc(-c3ccc(OC)cc3)cc2C(=O)N([C@@H](C)CO)C[C@H]1C
→ -10	-6
Cc1ccc(S(=O)(=O)N(C)C[C@@H]2Oc3c(NC(=O)C4CC4)cccc3C(=O)N([C@@H](C)CO)C[C@@H]2C)cc1
→ -5	3
CC(C)NC(=O)N[C@@H]1CC[C@H](CCNS(=O)(=O)c2ccc(Cl)cc2)O[C@H]1CO
→ 16	15
O=C(C1CCOCC1)N1CC2(C1)[C@@H](c1ccccc1)[C@H](CO)N2C(=O)CC1CC1
→ 5	3
CC(C)NC(=O)N(C)C[C@H]1Oc2ncc(C#CC3CCCC3)cc2C(=O)N([C@@H](C)CO)C[C@H]1C
→ 2	-4
CCN1[C@@H]2c3ccc(-c4cccc(F)c4)c(=O)n3C[C@@H]2[C@@H](CO)[C@@H]1C(=O)N(C)C
→ 5	5
COc1ccc(S(=O)(=O)Nc2cccc3c2O[C@H](CN(C)C(=O)Nc2c(C)noc2C)[C@H](C)CN([C@H](C)CO)C3=O)cc1
→ 9	6
O=S(=O)(c1cccc(F)c1)N1CCN(Cc2ccc(OCCO)cc2)CC1
→ -5	-8
O=C(c1cccnc1)N1C[C@@H]2[C@H](c3ccccc31)[C@H](CO)N2C(=O)C1CC1
→ 13	14
O=C(C[C@H]1C=C[C@@H](NC(=O)c2ccc3c(c2)OCO3)[C@@H](CO)O1)NCc1ccc(Cl)cc1
→ 17	8
CC=Cc1ccc2n(c1=O)C[C@H]1[C@H](CO)[C@@H](C(=O)OC)N(CCc3ccccc3)[C@@H]21 (mixture of isomers)
→ 8	9
Cc1noc(C)c1S(=O)(=O)Nc1ccc2c(c1)C(=O)N([C@H](C)CO)C[C@@H](C)[C@@H](CN(C)Cc1ccccc1)OCCCC[C@@H](C)O2
→ -22	-15
C/C=C/c1ccc([C@H]2[C@@H](CNS(C)(=O)=O)N(CC3CCCC3)[C@H]2CO)cc1
→ -14	-6
CC(C)(C)[S@@](=O)N1Cc2cc(C(=O)NCCN3CCCC3)nc(-c3cccc(-c4cccc(C#N)c4)c3)c2[C@H]1CCO
→ -17	20
C[C@@H]1CN([C@@H](C)CO)C(=O)CCCn2nncc2CO[C@H]1CN(C)Cc1ccccc1O
→ 11	14
O=C(C[C@@H]1CC[C@@H]2[C@H](COC[C@H](O)CN2CC2CC2)O1)NCC1CC1
→ -4	4
C[C@@H]1CN([C@H](C)CO)C(=O)Cc2cc(NC(=O)Cc3cn(C)c4ccccc34)ccc2O[C@@H]1CN(C)C
→ 3	-1
C[C@@H]1CN([C@@H](C)CO)C(=O)c2cc(NC(=O)Nc3cccc4ccccc34)ccc2O[C@@H](C)CCCCO[C@@H]1CN(C)Cc1ccc(C(=O)O)cc1
→ 22	11
C[C@@H]1CCCCO[C@H](CN(C)Cc2ccc(C(=O)O)cc2)[C@H](C)CN([C@@H](C)CO)C(=O)c2cc(N(C)C)ccc2O1
→ 17	13
O=C(NCC1CC1)[C@@H]1[C@@H](CO)[C@@H]2Cn3c(cccc3=O)[C@H]1N2C(=O)c1ccc(F)cc1
→ 9	15
C[C@@H]1CN([C@@H](C)CO)C(=O)Cc2cc(NS(=O)(=O)c3ccc(F)cc3)ccc2O[C@@H]1CN(C)S(=O)(=O)c1cn(C)cn1
→ 16	8
C[C@H]1CN([C@@H](C)CO)C(=O)c2cccc(NC(=O)c3ccncc3)c2O[C@H]1CN(C)S(=O)(=O)c1ccccc1
→ 17	12
CC(C)NC(=O)Nc1ccc2c(c1)CC(=O)N([C@@H](C)CO)C[C@@H](C)[C@@H](CN(C)CC1CCCCC1)O2
→ -8	-7
C[C@H](CO)N1C[C@H](C)[C@@H](CN(C)S(=O)(=O)c2ccc(Cl)cc2)Oc2c(NS(=O)(=O)c3ccc(Cl)cc3)cccc2C1=O
→ -17	-3
CCNC(=O)[C@H]1[C@H](CO)[C@H]2Cn3c(ccc(-c4ccc(F)cc4)c3=O)[C@@H]1N2C
→ 4	1
COC(=O)C[C@H]1CC[C@H]2[C@@H](COc3ccc(NS(=O)(=O)c4ccccc4F)cc3C(=O)N2C)O1
→ 5	2
N#Cc1cccc(-c2ccc([C@@H]3[C@@H](CO)N4CCCCN(C(=O)Nc5ccccc5)C[C@H]34)cc2)c1
→ ?	.
O=C(C[C@@H]1CC[C@H]2[C@@H](COC[C@H](O)CN2C(=O)c2ccc(F)cc2)O1)Nc1ccc(-c2ccccc2)cc1
→ ?	.
O=C(C[C@H]1C=C[C@@H](NC(=O)C2CC2)[C@@H](CO)O1)NCCCN1CCOCC1
→ 9	9
C[C@@H]1CCCCO[C@H](CN(C)Cc2ccc(C(F)(F)F)cc2)[C@@H](C)CN([C@H](C)CO)C(=O)c2cc(NC(=O)c3ccccc3)ccc2O1
→ ?	.
C/C=C/c1ccc([C@@H]2[C@H](C#N)N(c3nc(CC)cs3)[C@H]2CO)cc1
→ -5	1
C[C@H]1CN([C@@H](C)CO)C(=O)Cc2cc(NC(=O)Nc3ccc(C(F)(F)F)cc3)ccc2O[C@@H]1CN(C)Cc1ccc(Cl)c(Cl)c1
→ -8	-10
CC(=O)N(C)C[C@@H]1Oc2ncc(C#CC(C)(C)O)cc2C(=O)N([C@@H](C)CO)C[C@@H]1C
→ 8	9
C[C@@H]1CN([C@H](C)CO)C(=O)c2cccc(NS(=O)(=O)c3ccccc3)c2O[C@@H]1CN(C)Cc1ccc(C(=O)Nc2ccccc2N)cc1
→ -27	-29
O=C(C[C@H]1C[C@H]2c3cc(NC(=O)C4CCC4)ccc3O[C@H]2[C@H](CO)O1)NCCc1ccccc1
→ 3	-1
C[C@H]1CN([C@@H](C)CO)C(=O)Cc2cc(NC(=O)CCCCCC(=O)Nc3ccccc3N)ccc2O[C@@H]1CN(C)S(C)(=O)=O
→ 14	11
Cc1cccc(S(=O)(=O)N2CCCCN3[C@H](C2)[C@@H](c2ccc(C#C[C@H](C)O)cc2)[C@@H]3CO)c1
→ -6	-20
CCC(=O)Nc1ccc2c(c1)OC[C@H](C)N(CCc1ccccc1)C[C@H](C)[C@@H](OC)CN(C)C2=O
→ 2	3
C[C@H](CO)N1C[C@H](C)[C@@H](CN(C)C)Oc2c(NC(=O)c3ccc(-c4nccs4)cc3)cccc2C1=O
→ 35	24

By substructure: the compounds so far containing a cyano group.
Results follow in this order: Vaccinia inh	Vaccinia inh Venus
CC(C)(C)[S@@](=O)N1Cc2cc(C(=O)NCCN3CCCC3)nc(-c3cccc(-c4cccc(C#N)c4)c3)c2[C@H]1CCO
→ -17	20
N#Cc1cccc(-c2ccc([C@@H]3[C@@H](CO)N4CCCCN(C(=O)Nc5ccccc5)C[C@H]34)cc2)c1
→ ?	.
C/C=C/c1ccc([C@@H]2[C@H](C#N)N(c3nc(CC)cs3)[C@H]2CO)cc1
→ -5	1

Following part.
Results follow in this order: Vaccinia inh	Vaccinia inh Venus
CN1CCN(C(=O)C[C@@H]2C[C@H]3c4cc(NC(=O)NC5CCCC5)ccc4O[C@H]3[C@@H](CO)O2)CC1
→ 15	9
Cc1ccc(S(=O)(=O)Nc2cccc3c2O[C@@H](CN(C)C(=O)NC(C)C)[C@@H](C)CN([C@@H](C)CO)C3=O)cc1
→ -10	-3
C[C@H]1CN([C@@H](C)CO)C(=O)Cc2cc(NC(=O)Cc3cn(C)c4ccccc34)ccc2O[C@H]1CN(C)C(=O)Nc1cccc2ccccc12
→ 15	18
C[C@@H]1CN([C@@H](C)CO)C(=O)c2cccc(NC(=O)Nc3cccc4ccccc34)c2O[C@H]1CN(C)CC1CC1
→ 5	6
COc1ccc(CN(C)C[C@@H]2OCc3cnnn3CCCC(=O)N([C@@H](C)CO)C[C@H]2C)cc1
→ -2	3
O=C(c1ccc(F)cc1)N1CC(=O)N2[C@H](CO)[C@H](c3ccc(C#CC4CC4)cc3)[C@H]2C1
→ ?	.
COc1ccc(NC(=O)Nc2ccc3c(c2)C(=O)N([C@@H](C)CO)C[C@@H](C)[C@@H](CN(C)Cc2ccccc2)OCCCC[C@@H](C)O3)cc1
→ ?	.
O=C(N[C@H]1CC[C@H](CC(=O)N2CCOCC2)O[C@@H]1CO)c1cccc(F)c1
→ -1	-3
C[C@@H]1CCCCO[C@@H](CN(C)CC2CC2)[C@@H](C)CN([C@H](C)CO)C(=O)c2cc(NS(=O)(=O)c3ccc(F)cc3)ccc2O1
→ 12	5
O=C(NCCN1CCOCC1)[C@]1(Cc2ccccc2)N=C(c2ccc(OCCCO)cc2)O[C@@H]1c1ccccc1
→ -9	-7
COc1ccc(C(=O)Nc2ccc3c(c2)C(=O)N(C)C[C@@H](OC)[C@@H](C)CN(C)[C@@H](C)CO3)cc1
→ 8	12
O=C(Cc1ccccc1)N1C[C@@H]2[C@H](c3ccccc31)[C@@H](CO)N2C(=O)C1CC1
→ 7	11
CC(C)NC(=O)Nc1ccc2c(c1)C(=O)N([C@H](C)CO)C[C@H](C)[C@@H](CN(C)C(=O)Nc1ccc3c(c1)OCO3)O2
→ 0	9
CCNC(=O)[C@H]1[C@H](CO)[C@H]2Cn3c(ccc(C4=CCCCC4)c3=O)[C@H]2N1C(=O)c1cnccn1
→ -4	-4
C[C@@H]1CCCCO[C@H](CN(C)S(=O)(=O)c2ccc(Cl)cc2)[C@@H](C)CN([C@@H](C)CO)C(=O)c2cc(NC(=O)C3CCCCC3)ccc2O1
→ -12	-2

Arranged by SMILES length (descending): part of the list above.
Results follow in this order: Vaccinia inh	Vaccinia inh Venus
C[C@H]1CN([C@@H](C)CO)C(=O)Cc2cc(NC(=O)Cc3cn(C)c4ccccc34)ccc2O[C@H]1CN(C)C(=O)Nc1cccc2ccccc12
→ 15	18
Cc1ccc(S(=O)(=O)Nc2cccc3c2O[C@@H](CN(C)C(=O)NC(C)C)[C@@H](C)CN([C@@H](C)CO)C3=O)cc1
→ -10	-3
O=C(NCCN1CCOCC1)[C@]1(Cc2ccccc2)N=C(c2ccc(OCCCO)cc2)O[C@@H]1c1ccccc1
→ -9	-7
